# Beta apoptosis – beta cell apoptosis inhibition; 300,000 tested, 0.8% active; protection from apoptosis, % (test concentration not listed); INS-1E cytokine-induced death, ATP luminescence, 48 h; percent of positive-control rescue, neutral wells zero;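 active = all replicates at 75% or more, or half of them and the mean; inconclusive = half reach 75% but not the mean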;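 also: 0% = cytokine-treated negative control wells and 100% = positive control rescue; higher means more ATP so stronger rescue from cytokine killing; wells of about 40 µL received 100 nL stock; the first replicate is given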
# Bfl-1 A1 inh – inhibitors of the anti-apoptotic protein A1, read as caspase activation; MEF A1-2A-BIM cells, Caspase-Glo 3/7 luminescence, 3 h; percent of clofoctol response, vehicle zero; caspase activation, % (no concentration beside the values); 330,000 tested, 0.066% active;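 active = over half of replicate activation scores above 10%, or exactly half above 10 with the replicate mean above 10; inconclusive = replicate mean below 10 yet half the replicates above 10; inactive = over half of replicates below 10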;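 also: wells of about 30 µL received 50 nL stock; many hits fall short of the cut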
# LANA-H2A inh – blocks KSHV LANA binding to histone H2A/H2B | Q9QR71 | cell-free LANA-H2A/H2B peptide, fluorescence polarization | inhibition, % (concentration not given with the values) | 320,000 tested, 0.6% active | AID 2629; in the data active = inhibition mostly above about 10%, no sharp cut-off; inactive = mostly below about 6.7%;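 also: stock transfer was 7.5 nL into about 10 µL; 0% = median of vehicle wells and 100% = median of positive control wells; one replicate is shown; the record names a cut of 25% in any replicate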
# Target sequence (Q9QR71 whole entry, looked up): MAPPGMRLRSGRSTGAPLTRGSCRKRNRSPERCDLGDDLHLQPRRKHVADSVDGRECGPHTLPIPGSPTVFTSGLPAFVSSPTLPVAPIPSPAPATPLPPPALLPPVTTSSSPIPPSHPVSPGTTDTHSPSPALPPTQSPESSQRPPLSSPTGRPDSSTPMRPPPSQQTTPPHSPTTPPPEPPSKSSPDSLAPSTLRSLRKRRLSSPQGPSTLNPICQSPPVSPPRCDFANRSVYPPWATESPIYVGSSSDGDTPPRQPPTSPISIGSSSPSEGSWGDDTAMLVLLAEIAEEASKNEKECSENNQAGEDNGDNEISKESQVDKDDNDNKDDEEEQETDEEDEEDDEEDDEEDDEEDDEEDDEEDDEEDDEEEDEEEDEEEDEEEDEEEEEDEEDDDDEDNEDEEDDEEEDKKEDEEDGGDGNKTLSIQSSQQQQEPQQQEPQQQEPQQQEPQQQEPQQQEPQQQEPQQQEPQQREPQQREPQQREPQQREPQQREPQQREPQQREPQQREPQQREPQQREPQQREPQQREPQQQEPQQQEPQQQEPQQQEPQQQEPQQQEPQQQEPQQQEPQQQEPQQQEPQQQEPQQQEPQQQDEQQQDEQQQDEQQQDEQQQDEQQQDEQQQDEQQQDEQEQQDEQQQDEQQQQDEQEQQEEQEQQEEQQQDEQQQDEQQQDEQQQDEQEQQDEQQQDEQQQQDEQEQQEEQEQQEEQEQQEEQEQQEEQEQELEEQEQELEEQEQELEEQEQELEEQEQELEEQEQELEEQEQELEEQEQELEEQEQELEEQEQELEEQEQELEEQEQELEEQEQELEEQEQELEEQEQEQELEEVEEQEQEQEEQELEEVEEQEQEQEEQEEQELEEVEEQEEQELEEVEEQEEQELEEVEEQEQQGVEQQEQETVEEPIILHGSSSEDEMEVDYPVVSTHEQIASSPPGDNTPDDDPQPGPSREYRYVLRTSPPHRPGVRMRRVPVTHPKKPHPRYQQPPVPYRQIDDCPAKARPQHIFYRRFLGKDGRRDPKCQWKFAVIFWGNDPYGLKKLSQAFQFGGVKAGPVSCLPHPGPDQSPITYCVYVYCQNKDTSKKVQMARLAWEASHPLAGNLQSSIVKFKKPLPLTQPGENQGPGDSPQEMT
# B2AR ag – activates human beta-2 adrenergic receptor causing internalization; Am2.2-beta2AR cells, FAP receptor internalization, flow cytometry; reference of the scale not given here; P07550; 340,000 tested, 0.43% active; AID 504454; response, % (no concentration beside the values);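 active = response above a set limit, near 3 SD of response in nonfluorescent compounds, cut at about 42% in these data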;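 also: stock transfer was 100 nL into about 11 µL; a reference agonist was the positive control; negative values mostly stem from fluorescent compounds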
# Calb FLC – affects C. albicans growth with fluconazole | C. albicans CaCi-2 (fluconazole-resistant clinical isolate) + fluconazole, Alamar Blue growth, 48 h | growth inhibition, % (no concentration beside the values) | 300,000 tested, 0.57% active | AID 1979;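 active = most replicates above 75%; inconclusive = exactly half above 75%; inactive = most below 75%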;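 also: all wells also contain fluconazole at 8 µg/ml as a sub-toxic cotreatment; 0% = median of DMSO wells and 100% = median of geldanamycin control wells; wells of about 8 µL received 7.5 nL stock; the first replicate is given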
# T cruzi repl – T. cruzi replication inhibition; T. cruzi beta-gal in NIH3T3, luminescence, 90 h; inhibition, % (test concentration not listed); 300,000 tested, 1.4% active; AID 1885;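 active = mean inhibition across valid replicates above about 55%, limit read from the data; inconclusive = mean below that limit but half or more replicates reach it; inactive = mean below it, under half of replicates reach it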;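 also: signal also drops with host cell toxicity which is not excluded here; 0% = plate median of DMSO wells and 100% = zero luminescence signal; higher percent means less beta-gal luminescence so fewer parasites; stock transfer was 50 nL into about 50 µL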
# Ecoli rRNA inh – selective bacterial rRNA inhibition in E. coli | E. coli WT GFP vs humanized-ribosome RFP mutants, fluorescence, 24 h; active compounds read low; DMSO median 0, no signal -100 | GFP signal change (wild-type ribosome), % (test concentration not listed) | 350,000 tested, 1.6% active;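 active = significant combined selectivity score with lowered wild-type GFP, culture density cut under 30%, mutant RFP and density less affected; inactive = any of these conditions unmet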; also: one replicate is shown; some compounds called inactive have numbers as strong as hits
# ALR H2O2 inh – human ALR oxidase inhibition via reduced H2O2; P55789; purified ALR, DTT oxidation, H2O2 HRP-luminol luminescence; inhibition, % (no concentration beside the values); 290,000 tested, 3.8% active; AID 485317;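 active = mean and each replicate at 75% or more; inconclusive = only one of the two met; inactive = neither met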;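 also: stock transfer was 7.5 nL into about 7.5 µL; 0% = neutral wells and 100% = wells with inactivated enzyme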
# Ecoli rRNA inh OD600 – recorded beside Ecoli rRNA inh, whose call it bears; OD600 change, %; measured here: OD600 growth;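 optical density of the mix in the first replicate; 0 = DMSO median and -100 = no signal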
# Ecoli rRNA inh RFP – second read-out of Ecoli rRNA inh, no call of its own (marks repeat the call); RFP signal change, %; measured here: RFP humanized mutant strains;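 first replicate; 0 = DMSO median and -100 = no signal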
# * hit, by the source's call; ? = inconclusive; · = no result given.
SMILES,Beta apoptosis,Bfl-1 A1 inh,LANA-H2A inh,B2AR ag,Calb FLC,T cruzi repl,Ecoli rRNA inh,Ecoli rRNA inh OD600,Ecoli rRNA inh RFP,ALR H2O2 inh
NC(=O)c1nsc(C(=O)N(Cc2ccco2)C(C(=O)NCC2CCCO2)c2ccc(O)cc2)c1N (stereo unspecified),1,0.2,-3.8,2,6,2,3,1,-0.6,·
COc1cc2nc(Cl)nc(N3CCCCC3)c2cc1OC,3,-0.1,-1.1,4,8,11,3,-4,-0.3,-1
O=C(CCc1ccccc1)Nc1ccc2c(c1)C(=O)OC2,-12,-0.4,4.0,-2,3,-7,·,·,·,0
CC(=O)N/C(=C\c1ccccc1)C(=O)OC(C)C(=O)N(C)c1ccccc1 (stereo unspecified),-4,0.7,-1.1,-6,·,0,6,8,0.5,1
COc1ccccc1C(=O)NC(=O)COC(=O)CCOc1ccccc1C,-1,0.4,2.3,4,1,7,-1,0,0.8,12
Cc1noc(C)c1S(=O)(=O)Nc1ccccc1OC(F)(F)F,3,-0.2,1.5,2,4,-29,-1,-2,-1.4,-1
CC(C)NC(=O)COc1ccc(S(=O)(=O)N(C)Cc2ccccc2)cc1,1,-1.3,-4.6,-1,-5,1,-3,-13,-4.9,8
CCOC(=O)NC(=O)c1cn(CCNCCO)c(=O)[nH]c1=O,-2,-0.1,-1.6,1,-3,-5,31,11,4.3,2
CC(C)(C)c1nc2ccccc2c2nnc(SCC(=O)Nc3nccs3)n12,·,0.6,-1.0,-17,3,-12,·,·,·,-3
Cc1ccc(N(CC(=O)NCCc2ccccc2)C(=O)c2csnn2)cc1,-1,0.2,8.4,3,4,-8,5,-1,-2.1,0
N#C/C(=C\c1ccc(OCCN2CCOCC2)cc1)C(=O)Nc1ccccc1F,8,0.2,4.7,1,-5,3,-4,-8,0.3,2
O=C(CSc1nnc(-c2ccccn2)o1)Nc1ccc(F)cc1,3,-0.4,-0.5,0,6,-9,3,-2,-2.1,-1
CC1CCN(c2ccc3nnc(CCC(=O)NC(C)C)n3n2)CC1,-4,1.3,1.1,-20,-6,0,-4,18,0.6,-2
CC1CC(C)CN(C(=O)c2nn(C)c3c2CSc2ccccc2-3)C1 (stereo unspecified),-6,-0.3,2.0,-13,-8,16,-17,-47,-6.3,31
CCN(CC)S(=O)(=O)c1ccc(C(=O)N2CCc3ccccc32)cc1,1,0.0,-1.0,-5,11,16,8,13,-4.2,-1
COc1cc(/C=N/S(=O)(=O)CCc2ccccc2)ccc1O,-3,1.0,·,5,-9,1,·,·,·,·
O=C(N[C@@H](Cc1ccccc1)C(=O)NC1CCCCCC1)c1ccco1,-9,0.4,1.4,-6,-12,1,·,·,·,-8
Cn1nccc1C(=O)Nc1cccc(C(F)(F)F)c1,2,0.0,7.4,-1,0,-17,4,9,9.8,-8
CCC(C)c1ccc(NC(=O)C/C(C)=N/NC(=O)c2cnccn2)cc1 (stereo unspecified),-10,-0.9,1.4,4,-12,-16,3,11,-9.4,13
CCc1cc(=O)oc2c(C)c(O)c(CN(C)C)cc12,-8,-0.8,0.3,-4,20,-15,·,·,·,18
O=C(NNC1=NCCN1Cc1ccccc1)c1cccc(C(F)(F)F)c1,-2,0.2,2.9,2,-12,-6,11,8,0.0,-43
O=C(NCCC(c1ccccc1)c1ccccc1)c1ccc(Br)o1,-1,-0.4,-1.5,-9,-10,23,·,·,·,2
CC(=O)/C(=N\Nc1ccccc1)Sc1nncn1C,-3,0.7,-1.7,-3,-1,4,·,·,·,98*
CCOC(=O)Nc1ccc(C(=O)NCC2CCCO2)cc1 (stereo unspecified),-12,2.4,7.2,2,-3,-6,·,·,·,0
COc1ccc(Nc2nc(=O)[nH]nc2C)cc1,-4,-0.2,-1.8,-7,-4,-31,16,10,-1.0,-3
# Next records follow:
SMILES,Beta apoptosis,Bfl-1 A1 inh,LANA-H2A inh,B2AR ag,Calb FLC,T cruzi repl,Ecoli rRNA inh,Ecoli rRNA inh OD600,Ecoli rRNA inh RFP,ALR H2O2 inh
C=C(C)CCC1(C)NC(=O)N(c2ccccc2)N1 (stereo unspecified),-1,0.7,-0.5,16,9,1,24,15,2.7,5
COc1ccc(CNC(=O)c2nnn(Cc3ccc(OC)cc3)c2N)cc1,2,0.2,-1.7,4,-5,1,9,15,-2.8,-5
Cc1c(CCC(=O)N[C@@H](CC(C)C)C(=O)O)c(=O)oc2cc3oc4c(c3cc12)CCCC4,-2,0.3,1.9,5,-4,-2,-17,-8,-1.5,0
CC(C)(C)C1CCC(=NNC(=S)Nc2cccnc2)CC1 (stereo unspecified),8,-0.1,-1.5,24,14,-1,9,4,2.2,4
O=c1nc2s/c(=C\c3ccco3)c(=O)n2nc1Cc1ccccc1,-11,-2.6,8.1,1,11,-11,·,·,·,43
CCCCN(CC)C(=O)c1cc2c(=O)n3cccc(C)c3nc2s1,-4,-0.9,2.3,-6,-5,14,-6,-12,-1.4,12
CCc1ccc(NC(=O)c2cnc(SC)nc2C)cc1,-4,0.8,-1.2,6,-2,8,-10,-8,2.0,-38
COc1ccc(Nc2oc(-c3ccccc3)nc2C#N)cc1,6,-0.4,-5.4,-5,?,-3,-1,13,2.8,-6
Fc1ccc(CNCc2ccco2)cc1,-5,-0.1,1.1,-4,-2,-17,3,11,0.6,-4
CCOc1cc(/C=C2\SC(=O)N(CC(=O)Nc3ccccc3F)C2=O)cc([N+](=O)[O-])c1O,42,-0.2,-1.6,20,61,35,6,3,-0.8,-1
C=CCN1CCN(C(=O)c2cc3c(s2)CCCC3)CC1,-1,-0.4,4.9,1,1,9,-3,-8,-2.4,-5
CN1C(=O)c2cccc(NC(=O)CCc3ccccc3)c2C1=O,-9,-0.2,-0.7,-11,8,-17,-3,-2,-2.5,·
O=C(NCCOc1ccccc1)C1CCC(=O)N(CCc2ccccn2)C1 (stereo unspecified),0,0.7,0.2,-16,-1,-8,4,8,-0.5,-2
CCOc1cc(-c2noc(CCC(=O)NCCc3ccccc3)n2)ccc1OC,1,0.9,-4.0,4,0,-2,2,4,0.7,-2
C[C@]12CCC(=O)C=C1[C@H](O)C[C@@H]1[C@@H]2[C@@H](O)C[C@@]2(C)[C@H]1CC[C@]2(O)C(=O)CO,12,-0.4,-2.0,6,·,7,8,10,0.3,0
Cc1ccc(/C(C#N)=C\c2cn(C)c3ccccc23)cc1,4,0.0,1.1,·,·,·,·,·,·,21
Cc1ccnc(NC(=O)CCN2C(=O)c3ccccc3S2(=O)=O)n1,·,·,·,1,-9,2,5,7,3.0,·
Cc1ccccc1-n1c(=O)c2ccccc2n2c(=O)[nH]nc12,1,-0.3,0.8,1,8,-17,·,·,·,-10
O=C1CSC(=Nc2cccc(Cl)c2Cl)N1,-13,0.8,6.9,7,36,-5,-30,-25,-2.7,9
O=C(Nc1ccc(S(=O)(=O)Nc2ncccn2)cc1)C(F)(F)F,-1,-0.1,2.2,-6,9,-14,-1,12,0.1,2
O=C(CCS(=O)(=O)c1ccccc1)Nc1ccc(-c2nc3ccccc3s2)c(O)c1,-5,-1.4,-3.9,-5,28,-7,·,·,·,-8
COc1ccc(C)cc1NC(=O)COCC(=O)O,-1,-0.4,1.5,-1,7,-7,·,·,·,-11
CC1CC2(C)Oc3ccccc3C3OCC1(CO)C(C)C32 (stereo unspecified),-3,-0.8,1.7,-6,-1,6,1,-1,0.5,-26
CC(=O)Nc1ccc(NS(=O)(=O)Cc2ccccc2)cc1,5,0.5,0.1,-7,-6,-7,·,·,·,-23
COc1ccc(C2(NC(C)=O)CCN(C(=O)c3ccco3)CC2)cc1,-10,1.0,4.0,0,3,0,·,·,·,-1
# Carrying on:
SMILES,Beta apoptosis,Bfl-1 A1 inh,LANA-H2A inh,B2AR ag,Calb FLC,T cruzi repl,Ecoli rRNA inh,Ecoli rRNA inh OD600,Ecoli rRNA inh RFP,ALR H2O2 inh
Cc1ccc(NC(=O)CCn2c(=O)c3cccn3c3ccccc32)c(C)c1,1,-1.0,1.5,-16,-15,8,17,6,-11,-23
CCCCS(=O)CC(COC)OC(=O)c1ccccc1 (stereo unspecified),-2,-0.5,2.2,-6,-13,-7,11,9,1.7,-3
Cc1nc2sc(C(c3cccs3)N3CCOCC3)c(O)n2n1 (stereo unspecified),-2,0.4,-0.2,-6,4,-18,1,-6,-3.6,-1
CCCCN(C(=O)c1c(C)noc1C)c1c(N)n(CCC)c(=O)[nH]c1=O,-1,1.0,-8.3,-7,·,·,15,13,-1.3,-5
Cc1nn(C)c(C)c1S(=O)(=O)N1CCCC(C(=O)NCCc2ccc(Cl)cc2)C1 (stereo unspecified),0,-0.1,0.9,-16,·,·,-2,4,0.2,-2
CC(C)(C)C(=O)Nc1cc(S(=O)(=O)Nc2ccc(Cl)cc2)ccc1O,-1,0.6,9.8,5,-2,4,-3,-2,0.9,9
COc1ccc(C)cc1NC(=O)c1nn(C)c(C(=O)Nc2cc(C)ccc2OC)c1[N+](=O)[O-],0,-0.2,2.6,4,0,5,14,5,2.2,-4
O=C(c1ccccc1Cl)N(Cc1ccc(Cl)c(Cl)c1)N1C(=O)CCCC1=O,-3,?,-0.2,-14,1,4,-8,-13,-2.4,4
CNCC(O)COc1cccc(OC)c1 (stereo unspecified),-7,-0.1,2.6,-4,9,-17,12,9,1.9,-2
Cc1ccnc2nc(C(=O)Nc3nnc(-c4ccccc4)o3)nn12,-3,0.0,-0.9,8,-4,-16,9,12,-1.6,0
Cc1ccc(NC(=S)N2CCOCC2)c(C)c1,·,0.4,8.4,2,1,-5,·,·,·,3

# Screening results as filed in PubChem BioAssay.

# These rows are one share of the data; the hit share may differ from the screen's.
